Sa ugtP lethal = growth inhibition of ugtP-null S. aureus, primary screen, RN4220 ugtP deletion, OD600; 16 h; some inactives read as strong as hits; growth inhibition, % (no concentration beside the values); 330,000 compounds, 0.54% hits;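 active = z-score under -3 and OD600 up to 0.15 on both plates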;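 also: plate controls were untreated wells for no effect and antibiotic for full effect; wells of about 80 µL received 100 nL stock; the first replicate is given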
PrP UTR inh = inhibition of PrP 5' UTR reporter expression. inhibition, % (concentration not given with the values). 340,000 compounds, 0.35% hits. cell-based PrP 5' UTR mRNA reporter, plate reader. AID 488862, 2010;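 active = every replicate at 50% or more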;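 also: 0 = median of the neutral control wells; tested in H4 reporter cells; numbers are from one replicate; inactives centre near -14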
Autofluor counter = counter-screen for toxin protease inhibitors: compound fluorescence. compound autofluorescence counterscreen, microsphere flow cytometry; hits give high values. fluorescence intensity (concentration not given with the values). 360,000 compounds, 3.1% hits;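 active = at least 3 SD above the mean of all compounds, about 16000 in these data; inconclusive = too few beads counted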;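 also: 100 nL of 1 mM stock went into each well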
Mtb hypoxia inh = PubChem AID 1159583 | M. tuberculosis hypoxia-regulated fluorescent reporter, fluorescence | fluorescence inhibition, % (test concentration not listed) | 300,000 compounds, 0.1% hits;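 active = 35 to 45% if threefold the growth effect, above 45% if 1.5-fold the growth effect; inactive = the rest, general growth blockers included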;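 also: wells of about 50 µL received 100 nL stock; 0% = vehicle wells and 100% = reference inhibitor wells; whole bacteria with a GFP reporter of the hypoxia response; strong numbers were not always called active; many hits fall short of the cut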
RN4220 kill = growth inhibition of S. aureus RN4220, primary screen, OD600 | 16 h | inhibition, % (concentration not given with the values) | 330,000 compounds, 0.33% hits | AID 1259311, 2017;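 active = z-score of -3 or lower and OD600 up to 0.18 on both plates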;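 also: plate controls were untreated cells for no effect and reference antibiotic for full effect; stock transfer was 100 nL into about 80 µL; one replicate is shown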
BJeLR viability = MLPCN primary cell-based screen for lethality selective to Ras in HRASV12 cells. inhibition, % (test concentration not listed). BJeLR (HRASV12) viability, CellTiter-Glo ATP luminescence, 48 h; reference of the scale not given here. 300,000 compounds, 0.17% hits;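 active = replicate mean above 50%; inconclusive = above 50% but judged a plate artefact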;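 also: 50 nL library stock added to about 25 µL; numbers are from one replicate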
Mtb hypoxia inh growth = second read-out of Mtb hypoxia inh, no call of its own (marks repeat the call); growth inhibition, %; measured here: M. tuberculosis growth (absorbance);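 0% = vehicle and 100% = reference antibiotic; read after six days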
* = called active by the depositor; ? = inconclusive; / = no result given.

SMILES	Sa ugtP lethal	PrP UTR inh	Autofluor counter	Mtb hypoxia inh	Mtb hypoxia inh growth	RN4220 kill	BJeLR viability
CCOC(=O)c1c(C)[nH]c(C(=O)OCC(=O)N2CCN(S(=O)(=O)c3ccc(C)cc3C)CC2)c1C	-1	-16	3825	4	1	4.6	/
C/C(=N\Nc1ccccn1)c1ccc(C#N)cc1	/	-9	4424	/	/	/	-30
O=C(O)CCCCCCCCCC[n+]1ccccc1	8	-11	4265	7	5	1.8	0
Clc1ccccc1/C=N/c1cc(-c2ccccc2)nn1-c1ccccc1	/	-29	3912	/	/	/	-4
Cc1ccc(S(=O)(=O)n2ccc(-c3cccc(OCc4c(F)cccc4Cl)c3)n2)cc1	23	-3	3556	16	2	3.3	-9
CC(=NNc1ccc(F)cc1F)c1ccc(Br)s1	1	/	/	-1	8	3.5	/
COc1ccc(NC(=O)COc2ccc(/C=C/c3cc[n+](C)cc3)cc2OC)cc1	3	-26	3490	15	9	1.2	-4
O=C(NCC1CCCO1)C(=O)NN=Cc1ccc2c(c1)OCO2 (configuration not stated)	1	/	/	1	6	-1.0	/
Cc1cccc(NC(=O)Cn2c(=O)oc3ccccc32)c1C	8	-22	3101	-2	4	1.8	5
CCOC(=O)c1cc2ccc(OC(=O)c3ccco3)cc2oc1=O	2	-21	9982	17	5	-1.0	15
NC(N)=NN=Cc1cccc([N+](=O)[O-])c1O	1	/	/	7	2	12	/
Cc1cc(Nc2ccc(Br)cc2F)n2nc(C)nc2n1	0	-19	5912	/	/	-0.2	1
Cc1ccc(-n2c(C)cc(C(=O)CSc3nncs3)c2C)cc1	-15	-52	8038	18	13	5.4	21
COCCCn1c(=C(C#N)C(=O)Nc2ccc(C(=O)O)cc2)sc(=Cc2ccccc2OC(C)C)c1=O	-1	/	/	-2	-3	12	/
COc1ccc(C)cc1NC(=O)C(=O)N/N=C(\C)CC(=O)Nc1cccnc1	/	-4	2375	/	/	/	6
Cc1c(OC(=O)N(C)C)ccc2c1O/C(=C\c1ccco1)C2=O	-6	-26	3383	9	8	5.9	-4
COc1cc(/C=N/NC(=O)c2ccncc2)c([N+](=O)[O-])cc1OC	/	-20	4175	/	/	/	-24
COc1ccc(CNC(=O)CCS(=O)(=O)c2ccc3c(c2)oc(=O)n3C)cc1	3	-8	5434	-7	-11	-0.4	-5
Cc1cc(C)n(-c2nc(SCC(=O)Nc3nccs3)c3c4c(sc3n2)COC(C)(C)C4)n1	-23	-24	2159	/	/	8.0	0
Cc1nc(N)sc1-c1csc(Nc2ccccn2)n1	14	-85	3194	-4	9	21	15
Cc1cc(C)c2nc(Nc3nc(-c4ccccc4)cc(=O)[nH]3)nc(C)c2c1	-5	-24	5132	4	1	11	-5
CCOc1cc(S(=O)(=O)N2CCCC2)c(C)cc1C	4	-6	2571	9	0	3.5	2
COc1ccc(N(CC(=O)NN=Cc2cccc(OC)c2OC)S(=O)(=O)c2ccccc2)cc1	15	/	/	-8	-2	6.6	/
O=S(=O)(Nc1cc(Cl)ccc1N1CCOCC1)c1ccccc1Cl	4	16	4166	8	-1	6.6	/
CC[C@]12c3[nH]c4cc(-c5ccco5)ccc4c3CCN1C(=O)[C@@H](CC(=O)NCC13CC4CC(CC(C4)C1)C3)C[C@@H]2C(=O)N1CCN(C(=O)C2CC2)CC1	-23	-3	3093	-8	7	-9.2	/
O=S(=O)(NCC(c1cccnc1)N1CCN(c2ccc(F)cc2)CC1)c1cccs1 (configuration not stated)	-7	-10	4459	-12	7	-3.2	2
CC(C)(C)NC(=O)CN(c1cccc([N+](=O)[O-])c1)S(=O)(=O)c1ccccc1	0	-22	3861	6	5	2.5	2
Cc1ccc(NC(=S)N(Cc2ccco2)C(C)c2cccs2)cc1 (configuration not stated)	5	-9	4587	14	7	3.9	0
COc1ccc(C(=O)NC2CC2)cc1OC1CCN(Cc2ccccc2F)CC1	-2	-12	6183	3	4	2.8	3
O=C(OCc1cc(=O)n2c(n1)sc1ccccc12)c1ccc(O)cc1	-10	-21	2617	17	8	5.8	-3

Single records (already shown). Order of values: Sa ugtP lethal, PrP UTR inh, Autofluor counter, Mtb hypoxia inh, Mtb hypoxia inh growth, RN4220 kill, BJeLR viability
Results for COc1ccc(N(CC(=O)NN=Cc2cccc(OC)c2OC)S(=O)(=O)c2ccccc2)cc1 = 15, /, /, -8, -2, 6.6, /
Results for CC[C@]12c3[nH]c4cc(-c5ccco5)ccc4c3CCN1C(=O)[C@@H](CC(=O)NCC13CC4CC(CC(C4)C1)C3)C[C@@H]2C(=O)N1CCN(C(=O)C2CC2)CC1 = -23, -3, 3093, -8, 7, -9.2, /

Next part
SMILES	Sa ugtP lethal	PrP UTR inh	Autofluor counter	Mtb hypoxia inh	Mtb hypoxia inh growth	RN4220 kill	BJeLR viability
COC(=O)c1cc(C#N)c(N(C)Cc2ccccc2)nc1C	9	-17	2350	/	/	5.0	-2
Cc1ccc(NC(=O)NCCCc2ccccc2)cc1	-4	-43	10326	4	12	2.8	0
CCn1c(CSc2nc(C)cc(C)n2)nnc1SCC(=O)Nc1ccccc1	9	-13	?	0	0	5.9	4
CCOc1ccc(/C=C/C(=O)N(CC)CC(=O)NCc2cccs2)cc1OC	1	0	?	-4	9	2.9	1
CC(C)=C1C2CCC1C1C(=O)N(NC(=O)c3ccco3)C(=O)C21 (configuration not stated)	8	-19	8396	7	4	0.6	-21
Cc1ccc(C2=CCNCC2)cc1	4	-9	3601	5	-3	7.8	2
COc1ccc(S(=O)(=O)N2CCCCCC2)cc1C(=O)N(C)CC(=O)Nc1cc(C)ccc1C	7	-11	5289	1	3	5.0	6
COc1cccc(CNC(=O)CCNS(=O)(=O)c2ccc3c(c2)CC(C)N3C(C)=O)c1 (configuration not stated)	9	-16	5619	-1	-6	5.5	-2
O=C(O)C(C(=O)/C=C/c1ccco1)=C1SCCS1	-6	-24	2429	9	9	-9.5	0

Entries shown so far with a carbonyl joined to an NH by a bond outside any ring (18):
SMILES	Sa ugtP lethal	PrP UTR inh	Autofluor counter	Mtb hypoxia inh	Mtb hypoxia inh growth	RN4220 kill	BJeLR viability
COc1ccc(NC(=O)COc2ccc(/C=C/c3cc[n+](C)cc3)cc2OC)cc1	3	-26	3490	15	9	1.2	-4
O=C(NCC1CCCO1)C(=O)NN=Cc1ccc2c(c1)OCO2 (configuration not stated)	1	/	/	1	6	-1.0	/
Cc1cccc(NC(=O)Cn2c(=O)oc3ccccc32)c1C	8	-22	3101	-2	4	1.8	5
COCCCn1c(=C(C#N)C(=O)Nc2ccc(C(=O)O)cc2)sc(=Cc2ccccc2OC(C)C)c1=O	-1	/	/	-2	-3	12	/
COc1ccc(C)cc1NC(=O)C(=O)N/N=C(\C)CC(=O)Nc1cccnc1	/	-4	2375	/	/	/	6
COc1cc(/C=N/NC(=O)c2ccncc2)c([N+](=O)[O-])cc1OC	/	-20	4175	/	/	/	-24
COc1ccc(CNC(=O)CCS(=O)(=O)c2ccc3c(c2)oc(=O)n3C)cc1	3	-8	5434	-7	-11	-0.4	-5
Cc1cc(C)n(-c2nc(SCC(=O)Nc3nccs3)c3c4c(sc3n2)COC(C)(C)C4)n1	-23	-24	2159	/	/	8.0	0
COc1ccc(N(CC(=O)NN=Cc2cccc(OC)c2OC)S(=O)(=O)c2ccccc2)cc1	15	/	/	-8	-2	6.6	/
CC[C@]12c3[nH]c4cc(-c5ccco5)ccc4c3CCN1C(=O)[C@@H](CC(=O)NCC13CC4CC(CC(C4)C1)C3)C[C@@H]2C(=O)N1CCN(C(=O)C2CC2)CC1	-23	-3	3093	-8	7	-9.2	/
CC(C)(C)NC(=O)CN(c1cccc([N+](=O)[O-])c1)S(=O)(=O)c1ccccc1	0	-22	3861	6	5	2.5	2
COc1ccc(C(=O)NC2CC2)cc1OC1CCN(Cc2ccccc2F)CC1	-2	-12	6183	3	4	2.8	3
Cc1ccc(NC(=O)NCCCc2ccccc2)cc1	-4	-43	10326	4	12	2.8	0
CCn1c(CSc2nc(C)cc(C)n2)nnc1SCC(=O)Nc1ccccc1	9	-13	?	0	0	5.9	4
CCOc1ccc(/C=C/C(=O)N(CC)CC(=O)NCc2cccs2)cc1OC	1	0	?	-4	9	2.9	1
CC(C)=C1C2CCC1C1C(=O)N(NC(=O)c3ccco3)C(=O)C21 (configuration not stated)	8	-19	8396	7	4	0.6	-21
COc1ccc(S(=O)(=O)N2CCCCCC2)cc1C(=O)N(C)CC(=O)Nc1cc(C)ccc1C	7	-11	5289	1	3	5.0	6
COc1cccc(CNC(=O)CCNS(=O)(=O)c2ccc3c(c2)CC(C)N3C(C)=O)c1 (configuration not stated)	9	-16	5619	-1	-6	5.5	-2

High-throughput results from PubChem BioAssay.
